Bioassay records as filed in PubChem.
ClpP mod = qHTS Assay for Activators of ClpP; ATP-dependent Clp protease proteolytic subunit (Bacillus subtilis (strain 168)), P80244; purified B. subtilis ClpP, FRET peptide cleavage, 20 min; Potency, µM (doses to about 57.5 µM), without a hit: at the highest dose activity change, negative = active; actives 1.9% (n = 340,000); active = well fitted falling curve with a large enough effect; inconclusive = small, poorly fitted or top-dose-only effect; inactive = no such curve, though single readings can be large or run the other way; note: potency is the fitted concentration of half-maximal effect; the source files actives as falling curves though it sought activators and does not explain the sign; nearly all actives have a fitted effect of over 65% in size; many hits overshoot -100%
Target sequence (P80244 whole entry, looked up): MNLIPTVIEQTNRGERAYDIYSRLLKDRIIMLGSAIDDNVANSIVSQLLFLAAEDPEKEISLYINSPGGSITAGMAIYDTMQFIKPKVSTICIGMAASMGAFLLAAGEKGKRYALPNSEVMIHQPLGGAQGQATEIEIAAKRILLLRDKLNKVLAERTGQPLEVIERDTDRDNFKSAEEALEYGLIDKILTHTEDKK
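FRET quenching reversal measured ClpP activation: 10 microg/mL B. subtilis ClpP at pH 8 with the FRET-FV decapeptide, read at 430 nm after 320 nm excitation. The 20-min minus 0-min signal was scaled between DMSO/no-enzyme wells and ADEP (5.8 microM final).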
TRPV1 potentiator = potentiators of human vanilloid receptor 1 (TRPV1). actives 0.02% (n = 320,000). potentiation, % at 8.33 µM. Q8NER1. TRPV1-expressing cells, Fluo-8 calcium influx, capsaicin EC20 potentiation; host cell line not named in the record; control for the full effect not named in the record; active means potentiation above 80%; inconclusive means 30% to 80%; inactive means below 30%; note: 0% is about no effect
Target sequence (Q8NER1 whole entry, looked up): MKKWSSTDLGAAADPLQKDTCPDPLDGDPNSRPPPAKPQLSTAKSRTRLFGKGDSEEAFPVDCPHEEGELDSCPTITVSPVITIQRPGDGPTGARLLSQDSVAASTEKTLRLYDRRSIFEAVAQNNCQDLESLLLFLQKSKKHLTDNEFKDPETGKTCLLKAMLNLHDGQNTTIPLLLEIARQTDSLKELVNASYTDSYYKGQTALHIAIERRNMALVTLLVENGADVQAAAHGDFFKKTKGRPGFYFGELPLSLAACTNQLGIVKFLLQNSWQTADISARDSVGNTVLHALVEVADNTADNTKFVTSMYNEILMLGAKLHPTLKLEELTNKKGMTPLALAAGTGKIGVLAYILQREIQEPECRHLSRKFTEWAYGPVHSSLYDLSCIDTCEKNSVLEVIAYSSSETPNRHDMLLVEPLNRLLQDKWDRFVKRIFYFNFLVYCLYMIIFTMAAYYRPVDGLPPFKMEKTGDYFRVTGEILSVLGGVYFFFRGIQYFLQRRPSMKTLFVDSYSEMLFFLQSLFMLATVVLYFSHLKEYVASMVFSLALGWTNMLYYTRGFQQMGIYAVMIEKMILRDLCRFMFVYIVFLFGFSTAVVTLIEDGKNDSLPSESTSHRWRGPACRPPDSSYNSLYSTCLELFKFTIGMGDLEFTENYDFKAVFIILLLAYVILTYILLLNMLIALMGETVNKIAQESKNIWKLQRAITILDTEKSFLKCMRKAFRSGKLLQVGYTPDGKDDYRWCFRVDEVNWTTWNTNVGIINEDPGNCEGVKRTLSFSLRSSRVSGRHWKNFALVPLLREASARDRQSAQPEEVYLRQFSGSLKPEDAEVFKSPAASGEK
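TRPV1-expressing cells were cultured overnight at 35.5C and loaded with Fluo-8 calcium dye for 40 to 90 min at room temperature. After a 10 s baseline, compound was added and calcium influx was read kinetically for 3 min (ex 480/em 520 nm).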
gsp ag = gsp mutant agonism; gsp mutant cells, cAMP HTRF, 30 min; control for the full effect not named in the record; Potency, µM (top dose mostly 76.9 µM), for inactives: at the top dose activation (cAMP increase), actives largely listed as activators; actives 0.13% (n = 340,000); active = well fitted activation curve with a large enough effect; inconclusive = small, poorly fitted or top-dose-only effect, or another doubt; inactive = no such curve, though single readings can be large or run the other way; cell line not stated here;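 note: phosphodiesterase inhibitor Ro 20-1724 added with compounds to block cAMP breakdown; potency is the fitted concentration of half-maximal effect; nearly all actives have a fitted effect of over 60% in size; about a fifth of the inactives were tested at one dose only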
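Cells in DMEM/10% FBS with G418 were pretreated with compounds in DMSO plus […] (300 uM stock) for 30 min at 37C. cAMP was measured by HTRF (cAMP-d2 plus anti-cAMP antibody-K) after 30 min at room temperature.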
gsp antag = antagonists of gsp mutant (McCune-Albright syndrome) | gsp-mutant cells, cAMP HTRF, 30 min; control for the full effect not named in the record | actives 0.4% (n = 340,000) | Potency, µM (titrated, usually from 76.9 µM), without a hit: top-dose activity change, negative = inhibition, actives largely listed as inhibitors; active = falling curve of any shape with a large fitted effect; inconclusive = falling curve, mostly with a smaller effect; inactive = flat or rising curve; cell line not stated here;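 note: intracellular cAMP measured with PDE inhibitor Ro 20-1724 present during compound exposure; potency is the fitted concentration of half-maximal effect; % is set by controls: 0 for no effect and ±100 for the full control effect; nearly all actives have a fitted effect of over 65% in size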
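Measurement of cellular cAMP by homogeneous time-resolved fluorescence following a 30 min compound exposure at 37C. The PDE inhibitor […] was present throughout; the assay buffer was DPBS with 0.05% BSA and 0.005% Tween 20.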
Sfp inh = Sfp phosphopantetheinyl transferase inhibition. Potency, µM, inactives show max response, negative = inhibition, actives largely listed as inhibitors. actives 3.5% (n = 310,000). AID 1490. Biochemical Sfp PPTase activity, qHTS. Q9F4F7; active = well fitted inhibition curve with a large enough effect; inconclusive = small, poorly fitted or top-dose-only effect, or another doubt; inactive = no such curve, though single readings can be large or run the other way;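 note: the enzyme is Sfp with the accession as filed and its product quenches rhodamine fluorescence; potency is the fitted concentration of half-maximal effect; 0% = enzyme reaction without inhibitor and -100% = no enzyme wells; top concentration of the series not given in the record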
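Compounds were incubated with enzyme (final 15 nM) for 15 min at room temperature before substrate addition started the reaction. Fluorescence at 525 nm excitation, 598 nm emission was recorded immediately and after 30 minutes.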
TRPML1 blocker = inhibitors of human TRPML1 channel; Q9GZU1; TRPML1-inducible cells, Ca2+ dye fluorescence, FDSS; active compounds read low; inhibition of EC80 agonist-evoked calcium signal; activity change, negative = inhibition, % (concentration not given with the values); actives 0.02% (n = 390,000); AID 624415; in the data active means activity change below about -50%; inconclusive means about -30% to -50%; inactive means above about -30%;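 note: stimulus is agonist 54-4 at its EC80 concentration; % is set by controls: 0 for no effect and ±100 for the full control effect; the text of the record puts the active cut at -80%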
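TRPML1-DL cells, Tet-induced overnight (~16 h, 37 °C) at 1,500 cells/well, were loaded with Ca8 no-wash dye plus quencher for 45-90 min at room temperature. Compounds were pinned during FDSS kinetic reading; agonist 54-4 at EC80 (4 uM final) then added.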
Menin-MLL FL inh = displaces fluorescein MLL peptide from human menin; AID 1766; FP activity change, % at 61.4 µM; 290,000 tested, under 10 active; Fluorescence polarization, fluorescein-MLL peptide displacement from menin; inconclusive = falling polarisation curve, or a change in total fluorescence; inactive = total fluorescence flat and polarisation flat or rising; no compound was filed as active; the % refers to the polarisation; negative = inhibition;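 note: % of control where 0% means no effect; inhibitors lower the polarisation; unlabelled MLL peptide was the positive control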
* marks the source's active call; other numbers are inactive results; ? = inconclusive; nt = no result given; [ ] = another dose, or the depositor's remark.

SMILES	ClpP mod	TRPV1 potentiator	gsp ag	gsp antag	Sfp inh	TRPML1 blocker	Menin-MLL FL inh
O=C(O)c1ccc(Cl)cc1Nc1nc2cc(Cl)ccc2o1	nt	2	16%	?	7%	21	-7.2
CCOc1ccc(C(=O)Nc2cc(-c3nc4ccccc4[nH]3)ccc2Cl)cc1[N+](=O)[O-]	?	2	-2%	22%	?	8	2.2
CCOC(=O)C1(CCOc2ccccc2)CCN(Cc2ccc(O)c(OC)c2)CC1	-0.6%	-27	-6%	0%	19%	-11	2.9
CCOC(=O)N1CCN(C(=O)CSc2nnc(-c3cccs3)o2)CC1	-26%	1	3%	1%	-3%	24	-2.3
CCC1C(=O)CC(c2ccccc2)NC1c1ccccc1 (configuration not stated)	nt	-2	6%	0%	15%	-18	6.5
COc1ccc(C(=O)NCCS(=O)(=O)NCc2cccnc2)cc1	nt	3	-28%[15.4 µM]	10%	nt	-21	nt
CC1(/[N+]([O-])=C/c2ccccc2F)CCCCC1=O (configuration not stated)	nt	6	-2%[15.4 µM]	9%	11%	11	-3.2
CCOC(=O)C1CCN(C(=O)C(C)Oc2ccc(C(=O)c3ccccc3)cc2)CC1 (configuration not stated)	1.5%	2	-22%	5%	nt	-7	nt
C(=N\N1CCN(Cc2cccc3ccccc23)CC1)/c1cccnc1	1.6%	?	?	-1%	-9%	3	0.2
O=C(NCCN1C(=O)S/C(=C\c2ccc(Cl)c([N+](=O)[O-])c2)C1=O)C1=COCCO1	nt	11	8%[15.4 µM]	-32%	nt	13	nt
Nc1ccccc1Sc1cc(Cl)nnc1Cl	1.0%	12	-60%[inhibitor]	-6%	?	-4	0.3
O=c1c2ccccc2nc2n1CCCN2	nt	-3	14%[15.4 µM]	3%	17%	-4	-4.9
COc1cc(OC)cc(C(=O)OCC(=O)c2ccc(S(=O)(=O)N3CCCCC3)cc2)c1	1.3%	8	-18%	3%	nt	3	nt
COc1ccc(C(c2nnnn2Cc2cccs2)N2CCN(c3ccccc3)CC2)cc1OC (configuration not stated)	-1.3%	0	-3%	-6%	-14%	16	-1.0
COc1ccc(C(C(=O)NC2CCCCC2)N(C(=O)c2ccccn2)c2cccnc2)cc1 (configuration not stated)	nt	1	-5%[15.4 µM]	10%	3%	15	-4.0
Cc1ccnc(NC(=O)COC(=O)c2ccc(F)cc2F)n1	nt	-8	-3%[15.4 µM]	2%	-5%	6	?
CC(C)C(C(=O)NC1=NCCS1)c1ccc(Cl)cc1 (configuration not stated)	nt	12	2%[15.4 µM]	-57%	6%	11	2.2
O=C(CCNS(=O)(=O)c1cccc2nsnc12)N1CC(=O)N(CCc2ccccc2)C(=O)C1	0.1%	7	-52%[inhibitor]	-8%	9%	-4	-1.3
COC(=O)c1ccc(COC(=O)c2ccc(-n3cnnn3)cc2)o1	0.8%	?	-3%	4%	?	-13	4.7
CC(C)CC(=O)Nc1ccc([N+](=O)[O-])cc1Cl	1.0%	-9	4%	10%	7%	0	0.1
COc1ccccc1Oc1ccc(NC(=O)Cc2ccccc2)cc1	-4.0%	nt	-29%	-10%	nt	4	nt
COc1cccc(-c2nnc(SCC(=O)OC(C)C)n2Cc2ccco2)c1	-2.3%	-10	7%	-1%	3%	17	-2.0
CCn1c(=O)cc(SCC(=O)NCCC2=CCCCC2)c2ccccc21	?	-10	19%	-17%	-4%	10	2.2
COc1nccnc1NS(=O)(=O)c1ccc(NC(=S)NC(=O)c2cccc(F)c2)cc1	-4.6%	-2	-3%	?	3%	0	4.2
COc1ccccc1/C=C/C(=O)OCC(=O)NC1CCCCCCC1	-16%	nt	-31%[inhibitor]	0%	nt	2	nt
COc1ccccc1N1CCN(C(=O)c2cccc(S(=O)(=O)NCc3cccnc3)c2)CC1	-0.3%	13	4%	-10%	nt	-14	nt
COc1ccc(C2c3ccc(O)cc3Oc3ncn4nc(-c5ccncc5)nc4c32)cc1OC (configuration not stated)	nt	1	?	-10%	-5%	9	13
CC(C)[C@H](NC(=O)OCc1ccccc1)C(=O)OCc1ccccc1	nt	1	7%[15.4 µM]	-2%	7%	11	-0.3
Cc1ccc(C)c(NC(=O)CN2C(=O)CNC2=O)c1	-1.4%	5	?	15%	3%	23	3.4
O=C(COC(=O)c1ccc(-n2cnnn2)cc1)Nc1cc(Cl)ccc1F	-3.2%	-4	2%	-2%	nt	7	nt

Five records picked at random from the list so far, as already listed:
SMILES	ClpP mod	TRPV1 potentiator	gsp ag	gsp antag	Sfp inh	TRPML1 blocker	Menin-MLL FL inh
O=C(COC(=O)c1ccc(-n2cnnn2)cc1)Nc1cc(Cl)ccc1F	-3.2%	-4	2%	-2%	nt	7	nt
COc1ccccc1/C=C/C(=O)OCC(=O)NC1CCCCCCC1	-16%	nt	-31%[inhibitor]	0%	nt	2	nt
COC(=O)c1ccc(COC(=O)c2ccc(-n3cnnn3)cc2)o1	0.8%	?	-3%	4%	?	-13	4.7
CCn1c(=O)cc(SCC(=O)NCCC2=CCCCC2)c2ccccc21	?	-10	19%	-17%	-4%	10	2.2
COc1ccccc1Oc1ccc(NC(=O)Cc2ccccc2)cc1	-4.0%	nt	-29%	-10%	nt	4	nt

Next results follow.
SMILES	ClpP mod	TRPV1 potentiator	gsp ag	gsp antag	Sfp inh	TRPML1 blocker	Menin-MLL FL inh
CCc1ccc(NC(=O)C(C)OC(=O)c2ccc(N3CCCC3)c([N+](=O)[O-])c2)cc1 (configuration not stated)	-0.8%	-3	-25%	-20%	-6%	-19	3.6
C=CCOc1c(Br)cc(CNn2nnnc2N)cc1OC	1.4%	15	14%	1%	16%	2	1.7
O=C(c1cc(S(=O)(=O)N2CCOCC2)c(Cl)cc1Cl)N1CCN(S(=O)(=O)c2cccc(F)c2)CC1	-0.2%	nt	9%[15.4 µM]	3%	nt	-5	nt
COc1cc2c(cc1OC)CN(C(=O)c1cc(=O)c3ccccc3o1)CC2	-3.9%	5	-4%	15%	-5%	30	3.8
Cc1cccc(COc2coc(CN3CCN(C(=O)c4ccco4)CC3)cc2=O)c1	-0.6%	-1	0%[15.4 µM]	-1%	nt	-17	nt
CCN1CCN(C(=O)CN(c2ccc(C)cc2)S(C)(=O)=O)CC1	-0.9%	19	-7%	0%	11%	-6	-0.7
O=C(Cn1nnc2ccccc2c1=O)Nc1ccc(S(=O)(=O)N2CCOCC2)cc1	nt	-2	17%[15.4 µM]	-11%	30%	-18	0.1
CCN(CC)C(=O)CSc1nc(-c2ccco2)cc(C(F)(F)F)c1C#N	32µM*	12	-1%	-6%	7%	23	1.9
CCn1c(SCc2nc3cc(OC)c(OC)cc3c(=O)[nH]2)nc2ccccc21	nt	-5	5%	7%	16%	16	-8.8
NC(=O)C1CCN(C(=O)CN(c2ccc3c(c2)OCCO3)S(=O)(=O)c2ccccc2)CC1	-4.3%	-4	-4%[15.4 µM]	5%	nt	-3	nt
Cc1nc2ccc(S(=O)(=O)NCC(=O)N3CCN(c4ccccc4)CC3)cc2s1	1.3%	4	3%	-34%	0%	-3	-5.5
Cc1ccc(S(=O)(=O)CCC(=O)NCCN2C(=O)S/C(=C\c3ccccc3)C2=O)cc1	2.1%	11	4%	50µM*	-4%	-12	5.8
O=C(O)c1cccc(S(=O)(=O)N2CCSCC2)c1	-0.4%	6	-10%	1%	15%	17	-3.3
CC(C)(C)C1CCc2c(C(=O)NNC(=O)/C=C/C(=O)O)csc2C1 (configuration not stated)	-5.7%	3	0%	-24%	?	-7	nt
COc1ccc(N2CCN(Cc3nc(Cc4cccc(F)c4)no3)C(C)C2)cc1 (configuration not stated)	nt	-3	16%	-13%	5%	6	-3.6
CCCCCCn1c(-c2ccco2)nc2oc3cc(OC)ccc3c(=O)c2c1=O	-15%	11	-1%	3%	5%	1	?
COc1ccccc1-n1c(SC)nc(O)cc1=O	-0.4%	12	5%	-11%	19%	7	0.9
Cn1cnc2c1c(=O)[nH]c(=O)n2Cc1ccccc1	-3.5%	-3	-34%[inhibitor]	1%	9%	9	0.3
O=C(O)CCCC(=O)Nc1ccn(-c2ccccc2)n1	-2.6%	1	2%	8%	5%	-5	1.0
Cc1ccc(S(=O)(=O)N2C[C@H]3C(=O)C[C@@H](c4cccc(Cl)c4)N(S(=O)(=O)c4ccc(C)cc4)[C@H]3C[C@H]2c2ccccc2)cc1	2.0%	nt	-37%[inhibitor]	nt	nt	-11	nt
CCOC(=O)N1CCN(C(=O)c2cc3c(=O)n4cccc(C)c4nc3s2)CC1	nt	?	31%	-6%	21%	1	-5.6
COC(=O)c1sccc1NC(=O)/C=C/c1ccc(Cl)cc1Cl	-18%	1	-29%	7%	12%	1	-0.5
O=C(NCCCc1ccccc1)c1cccc(NC(=O)C2CCCC2)c1	1.4%	nt	nt	-8%	nt	14	nt
Fc1ccc(-c2nc3ccncc3[nH]2)cc1	-14%	4	25%	4%	-1%	-7	1.8
COc1ccc2c(c1)C1(Nc3ccccc3C(=O)N1c1ccccc1)C(=O)N2 (configuration not stated)	-0.8%	-19	-3%	2%	3%	-10	-0.2
O=C(CSc1nnc(CNC(=O)c2ccccc2)o1)NCc1ccco1	0.2%	3	20%	10%	3%	-5	nt
CCC(=O)Nc1ccc(-n2nnnc2SCC(=O)NNC(=O)c2ccco2)cc1	-1.5%	3	-5%	10%	8%	nt	-0.6
O=C(CN1CCOCC1)Nc1nc(-c2ccc3c(c2)CCN3S(=O)(=O)c2ccccc2)cs1	2.1%	22	-7%[15.4 µM]	?	-12%	-7	3.4
Cc1cccc2cc(CNC3CCCC3)c(Cl)nc12	nt	-6	3%[15.4 µM]	7%	12%	-4	3.8
